Screening results deposited in PubChem BioAssay by Sanford-Burnham Center for Chemical Genomics.
697 NFkB inh – inhibitors of PMA/ionomycin-induced NF-kB reporter, 697 cells, primary screen, B-cell NF-kB inhibitor project, cell-based, luminescence, uHTS | inhibition, % at 4 µM | 697 B-cell NF-kB luciferase reporter, 16 h | 330,000 compounds, 0.33% hits | AID 435022, 2010; in the data active = inhibition above about 35%
Gli-Sufu block – Gli-Sufu pathway antagonists, primary screen, luciferase luminescence, Sufu-KO-LIGHT cells, uHTS; Sufu-KO-LIGHT fibroblasts, Gli luciferase reporter luminescence; inhibition, % at 5 µM; 340,000 compounds, 0.74% hits; AID 588413, 2011;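 active = inhibition above about 55%, limit read from the data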;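 note: 0% = DMSO-treated cells and 100% = wells with medium but no cells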
UBC13 polyUb – UBC13 polyubiquitin chain formation inhibitors, primary screen, biochemical, TR-FRET, uHTS; inhibition, % at 20 µM; Ubiquitin-conjugating enzyme E2 N (Homo sapiens), P61088; 330,000 compounds, 0.47% hits; in the data active = inhibition above about 45%, passing the limit was not always enough
Target sequence (P61088 whole entry, looked up): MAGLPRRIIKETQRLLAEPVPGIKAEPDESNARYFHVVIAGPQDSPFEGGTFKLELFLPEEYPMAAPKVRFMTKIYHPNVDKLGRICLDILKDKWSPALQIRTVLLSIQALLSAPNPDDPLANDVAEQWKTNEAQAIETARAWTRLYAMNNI
EBI2 antag – EBI2 receptor antagonists, beta-arrestin recruitment, primary screen, cell-based, luminescence, 7a,25-OHC stimulation, uHTS; G-protein coupled receptor 183 (Homo sapiens), P32249; 7a,25-OHC stimulated; inhibition, % at 5 µM; 360,000 compounds, 0.81% hits; AID 651636, 2012; in the data active = inhibition above about 38%;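 note: enzyme fragment complementation signal reports receptor beta-arrestin coupling in cells; 0% = agonist plus DMSO wells and 100% = wells without agonist; some results beyond the cut were filed as inactive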
Target sequence (P32249 whole entry, looked up, the tested form may be a part): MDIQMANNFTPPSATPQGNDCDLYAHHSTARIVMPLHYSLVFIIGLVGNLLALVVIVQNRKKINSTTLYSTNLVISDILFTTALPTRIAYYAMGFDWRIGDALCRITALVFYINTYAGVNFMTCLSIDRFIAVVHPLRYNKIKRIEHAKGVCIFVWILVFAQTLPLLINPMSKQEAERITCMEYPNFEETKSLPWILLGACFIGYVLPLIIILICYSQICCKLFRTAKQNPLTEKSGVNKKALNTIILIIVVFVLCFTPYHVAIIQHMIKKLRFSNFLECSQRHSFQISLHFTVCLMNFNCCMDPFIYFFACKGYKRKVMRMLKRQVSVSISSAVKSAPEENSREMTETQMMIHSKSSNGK
Jurkat NFkB inh – inhibitors of induced NF-kB luciferase reporter, primary screen, TCR NF-kB activation inhibitor project, cell-based, luminescence, uHTS; AID 435003, 2010; 330,000 compounds, 0.53% hits; Jurkat, PMA/ionomycin-induced NF-kB luciferase reporter; inhibition, % at 4 µM; in the data active = inhibition above about 50%
APJ antag – antagonists of human apelin receptor APJ, primary screen, CHO-K1 cells, beta-arrestin complementation, luminescence. inhibition, % at 20 µM. 330,000 compounds, 0.32% hits. AID 2521, 2010;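 active = inhibition above about 40% at 20 µM, limit read from the data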;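 note: cells challenged with 10 nM apelin-13 agonist together with compound; plate controls were apelin-13 plus DMSO wells for no effect and DMSO wells lacking apelin-13 for full effect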
* = called active by the depositor; . = no result given.

Values in the order – 697 NFkB inh, Gli-Sufu block, UBC13 polyUb, EBI2 antag, Jurkat NFkB inh, APJ antag
1) COc1ccc(NC(=O)C(c2cc3c(cc2[N+](=O)[O-])OCO3)N(C)C)cc1 (stereo not drawn)
    -15, -3, 4, -4, -15, -63
2) CCC(C)NC(=O)c1ccccc1NC(=O)/C(=C/c1ccc(OC)cc1)c1ccccc1 (stereo not drawn)
    -7, -5, 5, -14, 0, -17
3) O=C1C=CC(=O)C(C2=C3C(=O)N(CCc4ccccc4)CC(=O)N3CCC2)=C1
    -6, 6, -13, ., -10, -15
4) O=C(CN1C(=O)/C(=C2\SC(=S)N(CCS(=O)(=O)O)C2=O)c2ccccc21)Nc1cccc(Br)c1
    ., -7, ., 5, ., .
5) COc1cc(CNC(=O)c2cc(-c3cc(OC)ccc3Cl)n[nH]2)cc(OC)c1
    ., ., ., 2, ., .
6) CCc1ccccc1NC(=O)CNC(=O)c1n[nH]c(=O)c2ccccc12
    7, 2, 2, -1, 10, 9
7) CC(=O)Nc1cccc(C(=O)N/N=C/c2cccc(C)n2)c1
    -10, 3, -1, -5, -25, 2
8) CC(=O)Nc1ccc(-c2csc(-c3cccnc3)n2)cc1
    -187, -86, 5, 9, -124, -20
9) COc1ccc(C(=O)N/N=C(\Cc2ncc[nH]2)c2ccccc2)cc1
    -6, 15, -34, -5, -11, 6
10) COc1ccccc1CCNC(=O)C1CCN(C(=O)/C=C/c2ccccc2)CC1
    -42, 0, 0, 86*, -5, 4
11) Cc1cc(C(=O)OCC(=O)c2ccc3c(c2)NC(=O)CO3)c2ccccc2n1
    -2, -3, 3, 1, 3, 21
12) Cc1ccc(/C=C2/Sc3ccc(C(=O)N4CCN(C)CC4)cc3NC2=O)cc1
    -8, -7, 14, 4, 16, 13
13) CCOC(=O)C1=C(Cc2ccc(Cl)cc2)C(=O)c2ccccc2C1=O
    28, 4, -44, 2, 14, 1
14) CCOC(=O)[C@@H](C)NS(=O)(=O)N(Cc1ccccc1)[C@H](C(=O)OC)C(C)C
    0, -1, -11, -17, -14, 9
15) COc1cccc(/C=N\n2c(C)nnc2C)c1OC
    7, -3, 18, 6, 7, 8
16) CCOC(=O)c1c(-c2ccccc2)nnn1-c1nc(OC)nc(N2CCOCC2)n1
    -47, -10, -2, 7, -21, 32
17) OCCN1CCN(c2ncnc3c2c(-c2ccccc2)cn3-c2ccc(Br)cc2)CC1
    16, 5, 18, 14, 14, -7
18) CN(Cc1ccco1)C(=O)Cn1nc(-c2ccc(Cl)cc2)ccc1=O
    3, 2, -3, 7, -3, 3
19) CC12CCC(C/C1=N\N=C1\NC(=O)/C(=C\c3cccc(Br)c3)S1)C2(C)C (stereo not drawn)
    11, 4, -23, 32, 6, 6
20) CCOC(=O)/C(=N/O)C1=NC(C)(C)Cc2cc(C)c(C)cc21
    24, 5, 1, 10, -13, -25
21) CN1CCN(C(=O)c2ccc3c(c2)NC(=O)/C(=C/c2ccccc2)S3)CC1
    -14, 1, -4, 3, 7, 8
22) O=C1NCCN(CC2CCN(CCc3ccc(Cl)c(Cl)c3)CC2)C1=O
    ., -11, ., 1, ., .
23) CCCCn1c(N)c(C(=S)NC(=O)CC(C)(C)C)c(=O)n(C)c1=O
    -12, 11, 5, -5, 12, 38
24) O=C1Nc2ccccc2/C1=C/C(=O)c1cccs1
    -21, -4, -1, 43*, 20, -3
25) Clc1nc(Cl)c2ncn(-c3ccccc3)c2n1
    ., 6, ., 28, ., .
26) CCOc1ccc(/C=N/n2c(C)nnc2C)cc1OC
    -68, 3, -14, 6, -25, -5
27) O=C(Nc1nnc(-c2ccccc2)o1)c1cc(Cl)sc1Cl
    3, -8, 2, -4, -2, -1
28) CC(=O)O[C@H]1c2ccccc2-c2ccccc2[C@@H]1OC(C)=O
    -5, -3, 1, -14, 1, 7
29) CC1CN(c2nc3ccccc3nc2C(C#N)C(=O)OC2CCCCC2)CC(C)O1 (stereo not drawn)
    -4, 8, 4, 0, 12, -37
30) Cc1sc2ncn(CC(=O)NCCCC(=O)N3CCN(c4ncccn4)CC3)c(=O)c2c1C
    -18, 7, -4, -1, 12, -10

Shown as a markdown table: part of the list above.
| No. | SMILES | 697 NFkB inh | Gli-Sufu block | UBC13 polyUb | EBI2 antag | Jurkat NFkB inh | APJ antag |
| --- | --- | --- | --- | --- | --- | --- | --- |
| 21 | CN1CCN(C(=O)c2ccc3c(c2)NC(=O)/C(=C/c2ccccc2)S3)CC1 | -14 | 1 | -4 | 3 | 7 | 8 |
| 22 | O=C1NCCN(CC2CCN(CCc3ccc(Cl)c(Cl)c3)CC2)C1=O | . | -11 | . | 1 | . | . |

An excerpt from above in order of heavy-atom count, largest number first.
Values in the order – 697 NFkB inh, Gli-Sufu block, UBC13 polyUb, EBI2 antag, Jurkat NFkB inh, APJ antag
4) O=C(CN1C(=O)/C(=C2\SC(=S)N(CCS(=O)(=O)O)C2=O)c2ccccc21)Nc1cccc(Br)c1
    ., -7, ., 5, ., .
30) Cc1sc2ncn(CC(=O)NCCCC(=O)N3CCN(c4ncccn4)CC3)c(=O)c2c1C
    -18, 7, -4, -1, 12, -10
29) CC1CN(c2nc3ccccc3nc2C(C#N)C(=O)OC2CCCCC2)CC(C)O1 (stereo not drawn)
    -4, 8, 4, 0, 12, -37
10) COc1ccccc1CCNC(=O)C1CCN(C(=O)/C=C/c2ccccc2)CC1
    -42, 0, 0, 86*, -5, 4
5) COc1cc(CNC(=O)c2cc(-c3cc(OC)ccc3Cl)n[nH]2)cc(OC)c1
    ., ., ., 2, ., .
21) CN1CCN(C(=O)c2ccc3c(c2)NC(=O)/C(=C/c2ccccc2)S3)CC1
    -14, 1, -4, 3, 7, 8
6) CCc1ccccc1NC(=O)CNC(=O)c1n[nH]c(=O)c2ccccc12
    7, 2, 2, -1, 10, 9
13) CCOC(=O)C1=C(Cc2ccc(Cl)cc2)C(=O)c2ccccc2C1=O
    28, 4, -44, 2, 14, 1
7) CC(=O)Nc1cccc(C(=O)N/N=C/c2cccc(C)n2)c1
    -10, 3, -1, -5, -25, 2
8) CC(=O)Nc1ccc(-c2csc(-c3cccnc3)n2)cc1
    -187, -86, 5, 9, -124, -20
15) COc1cccc(/C=N\n2c(C)nnc2C)c1OC
    7, -3, 18, 6, 7, 8
24) O=C1Nc2ccccc2/C1=C/C(=O)c1cccs1
    -21, -4, -1, 43*, 20, -3
25) Clc1nc(Cl)c2ncn(-c3ccccc3)c2n1
    ., 6, ., 28, ., .

Next section:
31: COc1ccc(C(=O)/C=C2/C(=O)Nc3ccccc32)cc1OC
32: Cc1c(/C=N/NC(=O)c2cc(Br)ccc2O)c(=O)n(C)c(=O)n1C
33: Cc1ccc(-n2cc(-c3ccccc3)c3c(N4CCN(C)CC4)ncnc32)cc1
34: Cc1nnc(NC(=O)c2nc(S(=O)(=O)Cc3ccccc3C)ncc2Cl)s1
35: Cc1onc(-c2ccccc2)c1C(=O)NC(=S)Nc1sc2c(c1C#N)CCCC2

screen / no.,31,32,33,34,35
697 NFkB inh,22,4,10,-99,-24
Gli-Sufu block,3,-2,5,11,0
UBC13 polyUb,-5,-14,15,-13,-9
EBI2 antag,48*,10,9,13,1
Jurkat NFkB inh,9,0,10,4,-11
APJ antag,12,-3,-4,-23,20

The list is partial. The share of hits here may be higher or lower than overall.
